Insulin prom inh: TRM-6 insulin promoter activity inhibition; TRM-6 cells (human fetal islet line), insulin promoter-eGFP reporter, imaging; reporter expression induced with tamoxifen; inhibition, % at 2 µM; 0.9% of 130,000 active;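 active = inhibition above the mean plus 3 SD, with well images judged a real hit on visual review, cut at about 60% in these data, passing the limit was not always enough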
GALR2 agonist: GALR2 (human) receptor agonism. GALR2-expressing cells, agonist activation read-out. AID 803. O43603. activation, %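 (tested at 5 µM)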. 0.48% of 140,000 active;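 active = above mean plus 3 SD of all compounds, about 5% in these data, not always enough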;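 also: 0% = vehicle buffer wells and 100% = reference agonist at full effect; tested in CHO reporter cells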
HSV replic up: increases HSV replication in cells; HSV replication augmentation in cells, fold increase; maximum fold increase; 0.005% of 220,000 active;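 active = peak rise of 1.5-fold or more in the series; tested in PC3 cells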;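 also: first round at 10 µM; read as green reporter fluorescence; hits show the peak of a series up to 25 µM; 1 = signal of infected wells without compound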
RGS16-Gao HTS: RGS16-Galphao interaction regulator (human) | O15492+P09471 | bead-based flow cytometry RGS16-Galphao binding, fluorescence; actives lie on both sides | binding response (% of control), % at 10 µM | 0.38% of 220,000 active | AID 1441;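 active = below 25% or above 175%, edge rows of some plates excepted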;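 also: Galphao activated by GDP with aluminum fluoride before binding; 100% = wells without compound and 0% = beads without RGS; some results beyond the cut were filed as inactive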
PKD1 kinase inh: PKD1 (human) kinase inhibition; PKD1 kinase fluorescence polarization assay; inhibition, %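 (about 10 µM by stock and volumes)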; 0.056% of 200,000 active;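 active = inhibition of 50% or more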;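 also: controls were vehicle for no effect and a reference inhibitor for full effect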
Target sequence (Q15139 whole entry, looked up): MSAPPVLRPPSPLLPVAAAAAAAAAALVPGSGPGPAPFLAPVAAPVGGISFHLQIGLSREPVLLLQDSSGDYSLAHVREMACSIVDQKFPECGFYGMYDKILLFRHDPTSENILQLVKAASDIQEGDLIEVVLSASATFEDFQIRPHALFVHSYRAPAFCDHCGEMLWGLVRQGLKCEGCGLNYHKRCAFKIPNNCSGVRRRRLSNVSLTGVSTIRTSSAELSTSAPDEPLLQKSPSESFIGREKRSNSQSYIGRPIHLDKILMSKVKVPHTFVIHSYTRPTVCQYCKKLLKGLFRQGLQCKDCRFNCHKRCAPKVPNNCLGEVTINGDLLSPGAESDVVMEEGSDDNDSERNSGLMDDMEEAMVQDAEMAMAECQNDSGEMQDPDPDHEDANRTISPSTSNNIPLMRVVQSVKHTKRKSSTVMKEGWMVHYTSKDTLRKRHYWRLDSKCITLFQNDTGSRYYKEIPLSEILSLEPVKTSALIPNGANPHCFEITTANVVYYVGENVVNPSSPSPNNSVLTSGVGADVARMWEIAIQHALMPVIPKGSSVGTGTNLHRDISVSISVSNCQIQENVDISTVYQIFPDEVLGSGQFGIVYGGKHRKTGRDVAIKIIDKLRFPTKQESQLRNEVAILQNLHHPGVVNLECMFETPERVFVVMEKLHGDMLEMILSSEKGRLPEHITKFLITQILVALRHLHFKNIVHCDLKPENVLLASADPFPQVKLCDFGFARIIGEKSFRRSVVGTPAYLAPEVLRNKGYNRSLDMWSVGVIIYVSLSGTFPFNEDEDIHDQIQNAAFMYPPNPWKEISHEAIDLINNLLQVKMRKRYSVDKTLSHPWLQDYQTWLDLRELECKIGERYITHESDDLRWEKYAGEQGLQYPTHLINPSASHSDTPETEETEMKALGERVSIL
Insulin prom inh cell count: further read-out of Insulin prom inh, marked with its call; normalized cell count, %; measured here: cell count, toxicity; reference of the scale not given here;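 cells exposed to compound for 48 h; stained nuclei by imaging scaled within each plate; lower means fewer cells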
HSV replic up primary fold: second read-out of HSV replic up, no call of its own (marks repeat the call); fold increase; compound at 10 µM; measured here: primary screen fold increase 10 uM; tested in PC3 cells;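 GFP signal in the first replicate; 1 = infected wells without compound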
Numbers without * were called inactive; i = inactive; . = no result given.

# | molecule | Insulin prom inh | Insulin prom inh cell count | GALR2 agonist | HSV replic up
1 | CN(CCCNC(=O)C1CCCN(S(=O)(=O)c2cnc[nH]2)C1)c1ccccc1 (stereo unspecified) | . | . | -0.4 | i
2 | Cc1ccc(NC(=O)c2nc3nccc(C)n3n2)c(C)c1 | -27 | 186 | . | i
3 | CCOC(=O)c1[nH]c(C)c(C(=O)c2ccc(C)cc2)c1C | -33 | 19 | -0.8 | i
4 | Cc1nc(CCNC(=O)Cc2ccc(F)cc2)cs1 | . | . | -2.2 | i
5 | COC(=O)c1cn(NC(=O)c2ccc3c(c2)OCO3)c(=O)c2ccccc12 | . | . | -1.6 | i
6 | CC1CCc2onc(C(=O)NCc3ccco3)c2C1 (stereo unspecified) | . | . | . | i
7 | O=C(NNC(=S)NCc1ccco1)C(c1ccccc1)c1ccccc1 | . | . | . | i
8 | CN(C(=O)c1coc(=O)c2ccccc12)c1ccc(F)cc1 | . | . | -3.4 | .

# | HSV replic up primary fold | RGS16-Gao HTS | PKD1 kinase inh
1 | 0.81 | 100 | -12
2 | 0.97 | 103 | 0
3 | 0.65 | 101 | 2
4 | 0.99 | 101 | -7
5 | 0.84 | 93 | -1
6 | 0.82 | 116 | -4
7 | 0.93 | 108 | 2
8 | . | 102 | 4

# | molecule | Insulin prom inh | Insulin prom inh cell count | GALR2 agonist | HSV replic up
9 | O=C(O)CC(c1ccccc1)n1cccc1 (stereo unspecified) | . | . | -0.4 | .
10 | CS(=O)(=O)N1CCC(CO)(Cc2ccccc2C(F)(F)F)CC1 | . | . | . | i
11 | CCOC(=O)c1ccc(NC(=O)CC2C(=O)N(c3ccccc3)C(=O)N2CCCOC)cc1 (stereo unspecified) | 36 | 88 | -1.2 | i
12 | CNC(=O)C1CC(=O)N/C(=N/N=C(\C)c2cccs2)S1 (stereo unspecified) | 26 | 67 | -1.3 | i
13 | O=C(C1CCC1)N1CCN(Cc2ccccc2)CC1 | -91 | 143 | -0.5 | i
14 | COc1ccccc1Oc1ccc(Oc2ccccc2OC)cc1 | . | . | . | i
15 | Cc1cc(C)c(Cn2c(=O)n(CCCC(=O)NCc3ccco3)c(=O)c3ccccc32)c(C)c1 | 5 | 168 | -1.7 | i
16 | NC(=O)COC(=O)c1ccccc1Oc1ccccc1 | . | . | . | i

# | HSV replic up primary fold | RGS16-Gao HTS | PKD1 kinase inh
9 | . | 101 | -9
10 | 1 | 103 | -9
11 | 0.88 | 101 | -10
12 | 0.96 | 107 | -6
13 | 0.85 | 97 | -9
14 | 0.96 | 102 | 3
15 | 0.95 | . | 1
16 | 1 | 101 | 1

# | molecule | Insulin prom inh | Insulin prom inh cell count | GALR2 agonist | HSV replic up
17 | O=C(CSc1nnc2n1CCCN2C(=S)Nc1ccc(Cl)cc1)c1ccccc1 | -33 | 107 | -0.5 | i
18 | Cn1c(O)c(N=Nc2nc(-c3ccccc3)cs2)c2ccccc21 | -32 | 90 | -2.1 | i
19 | Cc1ccc(-n2cc(CN3CCN(C(=O)c4ncn[nH]4)CC3)c(-c3ccc(F)cc3)n2)cc1 | . | . | . | i
20 | Cc1c(NC(=O)c2ccc(-c3ccc([N+](=O)[O-])cc3Cl)o2)c(=O)n(-c2ccccc2)n1C | 14 | 127 | . | i
21 | COc1ccc(CNC(=O)COC(=O)CCc2nc3ccccc3c(=O)[nH]2)cc1 | . | . | . | i
22 | Nc1cc(C(=O)N2CCCC2)cc(C(=O)N2CCCC2)c1 | -38 | 84 | -2.6 | i
23 | COc1ccc(NC(=O)C2CCC(=O)N2S(=O)(=O)c2ccc(C)cc2)c(OC)c1 (stereo unspecified) | -3 | 64 | -0.1 | i
24 | COc1ccc(/C=C2\CCCC3C2=NN(C(=O)CSc2ncn[nH]2)C3c2ccc(OC)cc2)cc1 (stereo unspecified) | -72 | 60 | 0.6 | i

# | HSV replic up primary fold | RGS16-Gao HTS | PKD1 kinase inh
17 | 0.95 | 104 | -4
18 | 1.1 | 103 | -4
19 | 0.83 | 105 | .
20 | 0.9 | 68 | -4
21 | 0.91 | 93 | -5
22 | 0.92 | 107 | -4
23 | 0.76 | 104 | -9
24 | 0.73 | 113 | -10

# | molecule | Insulin prom inh | Insulin prom inh cell count | GALR2 agonist | HSV replic up
25 | O=C(CCc1ccccc1)NNC(=O)Nc1ccccc1 | . | . | . | i
26 | C(=C\c1cc(/C=C/c2ccccc2)ncn1)/c1ccccc1 | 28 | 232 | -2.1 | i
27 | CC(C)OC1(c2ccccc2)OC(=O)c2ccccc21 (stereo unspecified) | . | . | . | i
28 | Cc1ccc(C)n1NC(=O)c1ccco1 | 9 | 167 | -2.0 | i
29 | O=C(CC(=O)N/N=C/c1ccc(Cl)cc1Cl)NCc1ccccc1 | -14 | 97 | 1.1 | i
30 | COc1ccc2cc(C)c(SCC(=O)Nc3cc(C)on3)nc2c1 | 26 | 86 | -2.4 | i
31 | COc1ccccc1N1CCN(CC(O)COc2ccc3c(C)cc(=O)oc3c2)CC1 (stereo unspecified) | -252 | 34 | -1.7 | i
32 | OCCNc1nc2ccc(Cl)cc2[nH]1 | 20 | 108 | -0.4 | i

# | HSV replic up primary fold | RGS16-Gao HTS | PKD1 kinase inh
25 | 1 | 96 | -4
26 | 0.95 | 98 | -3
27 | 0.85 | 100 | .
28 | 1.1 | 97 | 6
29 | 0.96 | 97 | -11
30 | 0.9 | 93 | -10
31 | 0.91 | 102 | -7
32 | 0.86 | 103 | -8

# | molecule | Insulin prom inh | Insulin prom inh cell count | GALR2 agonist | HSV replic up
33 | COc1cc(OC)cc(C(=O)NCC(=O)OCC(=O)/C=C2/N(C)c3ccccc3C2(C)C)c1 | . | . | . | i
34 | CN1C2C=C3C(C#N)=C(N)C(C#N)(C#N)[C@@H](c4ccsc4)[C@@H]3C1CC2 (stereo partly specified) | 0 | 66 | -1.1 | i
35 | Cc1ccc2c(C)[nH]c(=O)cc2c1 | . | . | -2.0 | i
36 | O=C(Cc1c[nH]c2ccccc12)N1CCc2ccccc21 | -60 | 102 | -1.6 | i
37 | Cc1cccc(OCCC(=O)Nc2ccc(S(=O)(=O)N3CCCC3)cc2)c1 | 7 | 149 | -2.0 | i
38 | COc1cc(N/N=C(\C)c2ccc(O)c(C)c2)nc(-c2ccccc2)n1 | . | . | . | i
39 | Clc1ccc(C[n+]2cc(-c3ccc(Cl)cc3)n3c2CCC3)cc1 | . | . | . | i
40 | Cc1cccc(N2CCN(C(=O)C(Cc3ccccc3)n3cccc3)CC2)c1C (stereo unspecified) | . | . | -1.5 | i

# | HSV replic up primary fold | RGS16-Gao HTS | PKD1 kinase inh
33 | 1 | 99 | 4
34 | 1.1 | 98 | -14
35 | 1 | 96 | -5
36 | 0.84 | 109 | -5
37 | 0.81 | 99 | 7
38 | 0.66 | 101 | -13
39 | 0.93 | 106 | .
40 | 0.88 | 100 | -11

# | molecule | Insulin prom inh | Insulin prom inh cell count | GALR2 agonist | HSV replic up
41 | Cc1cccc2cn[nH]c12 | . | . | . | i
42 | CNC(=O)Nc1ccc2snnc2c1 | . | . | -1.4 | i
43 | COc1cccc(NC(=S)Nc2cccnc2)c1 | -7 | 100 | -1.4 | i
44 | CCc1ccc(NC2=NC(C(=O)c3ccccc3)CC(=O)N2)cc1 (stereo unspecified) | -17 | 94 | -0.5 | i
45 | O=C(CSc1nc2ccccc2o1)NCc1n[nH]c(=O)c2ccccc12 | . | . | -0.2 | .
46 | COc1ccc(NC(=O)OC(C)C)cc1 | 9 | 149 | -1.5 | i
47 | CCN(CC)CC(O)Cn1c(-c2ccccc2Cl)nc2ccccc21 (stereo unspecified) | . | . | . | i
48 | Cc1ccc(S(=O)(=O)N2CCCCC2C(=O)Nc2nncs2)cc1 (stereo unspecified) | . | . | . | i

# | HSV replic up primary fold | RGS16-Gao HTS | PKD1 kinase inh
41 | 1 | 95 | -1
42 | 0.71 | 100 | 2
43 | 1.1 | 102 | -5
44 | 0.86 | 91 | -4
45 | . | 99 | -5
46 | 1.1 | 113 | -7
47 | 1.1 | 94 | .
48 | 1 | 103 | .

# | molecule | Insulin prom inh | Insulin prom inh cell count | GALR2 agonist | HSV replic up
49 | Cc1cc(N/C=C/C(=O)c2cccc3ccccc23)no1 | -9 | 130 | -0.7 | .
50 | CCc1ccc(N/C(N)=N/c2nc(CSc3ccccn3)cc(=O)[nH]2)cc1 | 30 | 120 | . | i
51 | CCc1nc2ccccc2c(C(=O)OCC(=O)Nc2cccc(S(=O)(=O)NC3=NCCCCC3)c2)c1C | . | . | . | i
52 | COCC(=O)Nc1cc([N+](=O)[O-])ccc1C | -19 | 143 | -2.2 | i
53 | COc1ccc(S(=O)(=O)N2CCN(C(=O)NCc3ccccc3)CC2)cc1 | -6 | 63 | -1.8 | i
54 | C=CCNC(=O)c1sc(SC)cc1-c1ccc(Cl)cc1 | -4 | 90 | -0.6 | i
55 | CCOC(=O)/C(C#N)=C/c1ccc(OC(=O)c2ccccn2)cc1 | . | . | -0.5 | i
56 | C=C(C)C(=O)OC1(C(F)(F)F)Oc2cc(C)ccc2NC1=O (stereo unspecified) | 27 | 80 | -1.1 | i

# | HSV replic up primary fold | RGS16-Gao HTS | PKD1 kinase inh
49 | . | 101 | 5
50 | 0.89 | 110 | -4
51 | 1 | 102 | .
52 | 1.1 | 102 | -9
53 | 0.9 | 98 | -13
54 | 0.81 | 105 | -6
55 | 1.1 | 101 | -5
56 | 0.6 | 101 | -2

# | molecule | Insulin prom inh | Insulin prom inh cell count | GALR2 agonist | HSV replic up
57 | O=[N+]([O-])c1ccc(O)c(C=Nc2ccc3c(c2)OCCO3)c1 | -32 | 95 | 0.4 | i
58 | Cc1ccc(OCC(=O)Nc2cccc(S(=O)(=O)N3CCCCCC3)c2)c([N+](=O)[O-])n1 | . | . | . | i
59 | CCOc1ccc(C(=O)N2CCSC2=S)cc1 | 54 | 128 | -2.5 | i
60 | CCOc1ccc(CNc2ccc3c(c2)ncn3C)cc1 | -55 | 191 | -1.9 | .
61 | Cn1cc([N+](=O)[O-])c(C(=O)Nc2ccc3c(c2)OCCO3)n1 | . | . | -2.6 | i
62 | Cc1cc(C)nc(SCCC(=O)N(C)C)n1 | . | . | -1.0 | i
63 | O=C(CNC(=O)c1ccco1)NCC(=O)OC(C(=O)c1ccccc1)c1ccc(Cl)cc1 (stereo unspecified) | -14 | 108 | 0.1 | i
64 | CNC(=O)NC(=S)NC(=O)c1cccc(Cl)c1 | . | . | . | i

# | HSV replic up primary fold | RGS16-Gao HTS | PKD1 kinase inh
57 | 1 | 100 | -8
58 | 0.78 | 95 | 5
59 | 0.9 | 107 | 2
60 | . | 103 | -6
61 | 0.79 | 100 | 1
62 | 1 | 91 | -3
63 | 0.96 | 85 | -3
64 | 1 | 101 | -2

Full records from above:
`CCOc1ccc(C(=O)N2CCSC2=S)cc1` in the list: Insulin prom inh = 54; Insulin prom inh cell count = 128; GALR2 agonist = -2.5; HSV replic up = i; HSV replic up primary fold = 0.9; RGS16-Gao HTS = 107; PKD1 kinase inh = 2
`CNC(=O)NC(=S)NC(=O)c1cccc(Cl)c1` in the list: Insulin prom inh = .; Insulin prom inh cell count = .; GALR2 agonist = .; HSV replic up = i; HSV replic up primary fold = 1; RGS16-Gao HTS = 101; PKD1 kinase inh = -2

Later entries.
# | molecule | Insulin prom inh | Insulin prom inh cell count | GALR2 agonist | HSV replic up
65 | COc1cc2c(C(=O)N3CCN(C4CCCCC4)CC3)cn(CC(C)C)c(=O)c2cc1OC | . | . | -2.4 | i
66 | O=C(NCc1ccccc1)C(c1ccc(O)cc1)N(C(=O)Cn1nnc(-c2cccs2)n1)c1ccc2c(c1)OCCO2 (stereo unspecified) | 44 | 130 | -0.3 | i
67 | O=C(COC(=O)C1CCN(S(=O)(=O)c2ccccc2C(F)(F)F)CC1)NCc1ccc(F)cc1 | 43 | 106 | -2.2 | i
68 | CCOC(=O)/C=C(\C)Sc1cc(=O)oc2ccccc12 | 9 | 150 | -0.2 | i
69 | O=C(O)C1C2C=CC(C2)C1C(=O)Nc1cccc(F)c1 (stereo unspecified) | 5 | 126 | -2.5 | i
70 | COc1ccc(C(=O)Cn2c(Br)nc3c2c(=O)n(C)c(=O)n3C)cc1OC | . | . | -1.5 | i
71 | Nc1nsnc1C(=O)NCCO | 17 | 142 | -1.0 | i
72 | Cc1ccc(Cl)cc1N1CCN(C(=O)C2CCN(S(=O)(=O)c3c(C)nn(C)c3C)CC2)CC1 | . | . | -0.6 | .
73 | CC(C)C[C@H](NC(=O)c1[nH]cnc1C(=O)N[C@@H](C)C(=O)OC(C)(C)C)C(=O)OCc1ccccc1 | . | . | . | i
74 | Nc1ccccc1-c1nc2ccccc2[nH]1 | 94* | 142* | -0.5 | i

# | HSV replic up primary fold | RGS16-Gao HTS | PKD1 kinase inh
65 | 0.97 | 96 | 7
66 | 0.84 | 110 | -2
67 | 0.86 | 162 | 2
68 | 0.54 | 98 | 1
69 | 0.93 | 100 | -8
70 | 0.75 | 103 | -15
71 | 1.1 | 102 | -3
72 | . | 101 | 18
73 | 0.87 | 84 | .
74 | 0.87 | 100 | -1

Assay outcomes: PubChem, several laboratories
